Screens deposited in PubChem BioAssay by several laboratories.
Beta cell apopt = inhibitors of cytokine-induced beta cell apoptosis, primary screen, luminescence; INS-1E cytokine-induced death, ATP luminescence, 48 h; percent of positive-control rescue, neutral wells zero; protection from apoptosis, % (test concentration not listed); actives 0.8% (n = 300,000); AID 435005, 2010;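 active = all replicates at 75% or more, or half of them and the mean; inconclusive = half reach 75% but not the mean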;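 also: 0% = cytokine-treated negative control wells and 100% = positive control rescue; higher means more ATP so stronger rescue from cytokine killing; wells of about 40 µL received 100 nL stock; the first replicate is given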
rRNA inh HTS = reduced GFP signal of wild-type E. coli, primary screen, bacterial rRNA inhibitor project, GFP/RFP fluorescence, OD600, single point | actives 1.6% (n = 350,000) | E. coli WT GFP vs humanized-ribosome RFP mutants, 24 h; stronger effect = lower value; DMSO median 0, no signal -100 | AID 720706, 2013 | GFP signal change (wild-type ribosome), % (concentration not given with the values);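 active = significant combined selectivity score with lowered wild-type GFP, culture density cut under 30%, mutant RFP and density less affected; inactive = any of these conditions unmet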; also: one replicate is shown; some compounds called inactive have numbers as strong as hits
Calb FLC = C. albicans growth inhibition with fluconazole, primary screen, CaCi-2 strain, Alamar Blue fluorescence; C. albicans CaCi-2 (fluconazole-resistant clinical isolate) + fluconazole, 48 h; growth inhibition, % (test concentration not listed); actives 0.57% (n = 300,000); AID 1979, 2009;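 active = most replicates above 75%; inconclusive = exactly half above 75%; inactive = most below 75%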;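 also: all wells also contain fluconazole at 8 µg/ml as a sub-toxic cotreatment; 0% = median of DMSO wells and 100% = median of geldanamycin control wells; wells of about 8 µL received 7.5 nL stock; the first replicate is given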
LANA-H2A inh = blockers of LANA interaction with H2A/H2B – biochemical, FP readout, HTS, primary screen | inhibition, % (no concentration beside the values) | Protein LANA1 (Human herpesvirus 8 type P (isolate GK18)), Q9QR71 | actives 0.6% (n = 320,000) | cell-free LANA-H2A/H2B peptide, fluorescence polarization | AID 2629, 2010; in the data active = inhibition mostly above about 10%, no sharp cut-off; inactive = mostly below about 6.7%;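 also: stock transfer was 7.5 nL into about 10 µL; 0% = median of vehicle wells and 100% = median of positive control wells; one replicate is shown; the record names a cut of 25% in any replicate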
B2AR ag = beta2AR agonists driving receptor internalization, primary screen, cell-based, FAP fluorogen, flow cytometry; Am2.2-beta2AR cells; reference of the scale not given here; response, % (test concentration not listed); actives 0.43% (n = 340,000);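 active = response above a set limit, near 3 SD of response in nonfluorescent compounds, cut at about 42% in these data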;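 also: stock transfer was 100 nL into about 11 µL; a reference agonist was the positive control; negative values mostly stem from fluorescent compounds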
Target sequence (P07550 whole entry, looked up): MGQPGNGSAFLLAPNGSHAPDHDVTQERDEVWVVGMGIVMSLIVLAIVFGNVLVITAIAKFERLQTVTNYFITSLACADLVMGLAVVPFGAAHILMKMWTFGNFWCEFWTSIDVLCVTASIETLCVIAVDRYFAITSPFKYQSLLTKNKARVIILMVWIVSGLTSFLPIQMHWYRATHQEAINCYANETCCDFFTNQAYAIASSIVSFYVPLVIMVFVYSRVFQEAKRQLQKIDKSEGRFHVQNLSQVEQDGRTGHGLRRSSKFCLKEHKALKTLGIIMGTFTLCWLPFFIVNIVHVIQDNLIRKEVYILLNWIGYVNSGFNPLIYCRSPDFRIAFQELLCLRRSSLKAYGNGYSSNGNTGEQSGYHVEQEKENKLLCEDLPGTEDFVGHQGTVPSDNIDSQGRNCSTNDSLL
A1 inh = caspase 3/7 activation in MEF A1-2A-BIM cells, primary screen, A1 inhibitor project, cell-based, luminescence, HTS; Caspase-Glo 3/7 luminescence, 3 h; percent of clofoctol response, vehicle zero; caspase activation, % (no concentration beside the values); actives 0.066% (n = 330,000);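 active = over half of replicate activation scores above 10%, or exactly half above 10 with the replicate mean above 10; inconclusive = replicate mean below 10 yet half the replicates above 10; inactive = over half of replicates below 10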;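 also: wells of about 30 µL received 50 nL stock; many hits fall short of the cut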
T cruzi repl = inhibitors of intracellular T. cruzi growth, primary screen, luminescence, NIH3T3 host cells; T. cruzi beta-gal in NIH3T3, 90 h; inhibition, % (concentration not given with the values); actives 1.4% (n = 300,000); AID 1885, 2009;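 active = mean inhibition across valid replicates above about 55%, limit read from the data; inconclusive = mean below that limit but half or more replicates reach it; inactive = mean below it, under half of replicates reach it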;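 also: signal also drops with host cell toxicity which is not excluded here; 0% = plate median of DMSO wells and 100% = zero luminescence signal; higher percent means less beta-gal luminescence so fewer parasites; stock transfer was 50 nL into about 50 µL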
ALR H2O2 inh = inhibitors of human ALR sulfhydryl oxidase, primary screen, biochemical, H2O2 detection, HRP-luminol luminescence, single point | inhibition, % (test concentration not listed) | purified ALR, DTT oxidation | AID 485317, 2010 | actives 3.8% (n = 290,000);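 active = mean and each replicate at 75% or more; inconclusive = only one of the two met; inactive = neither met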;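 also: stock transfer was 7.5 nL into about 7.5 µL; 0% = neutral wells and 100% = wells with inactivated enzyme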
Target sequence (P55789 whole entry, looked up): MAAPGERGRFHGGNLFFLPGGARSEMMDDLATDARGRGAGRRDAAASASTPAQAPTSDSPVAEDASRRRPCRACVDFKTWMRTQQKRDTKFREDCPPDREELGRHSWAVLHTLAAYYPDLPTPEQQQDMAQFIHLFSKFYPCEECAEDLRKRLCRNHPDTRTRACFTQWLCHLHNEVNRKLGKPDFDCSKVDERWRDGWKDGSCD
rRNA inh HTS OD600 = also measured in rRNA inh HTS; calls as there; OD600 change, %; measured here: OD600 growth;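 optical density of the mix in the first replicate; 0 = DMSO median and -100 = no signal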
rRNA inh HTS RFP = second read-out of rRNA inh HTS, no call of its own (marks repeat the call); RFP signal change, %; measured here: RFP humanized mutant strains;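 first replicate; 0 = DMSO median and -100 = no signal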
The depositor's hits bear a star. Not all compounds are listed; count on the stated rates, not on these rows.

What do the screens show for `CC(C)C[C@H](NC(=O)c1[nH]cnc1C(=O)Nc1ccccc1)C(=O)OC(C)(C)C`?
Beta cell apopt: 36; rRNA inh HTS: 1; Calb FLC: 22; LANA-H2A inh: 1.6; B2AR ag: 12; A1 inh: 0.3; T cruzi repl: 23; ALR H2O2 inh: -10; rRNA inh HTS OD600: -4; rRNA inh HTS RFP: 15

What do the screens show for `CCOc1ccc(C(c2nnnn2Cc2ccccc2)N2CCN(C(=O)c3ccco3)CC2)cc1` (stereo unspecified)?
Beta cell apopt: -3; Calb FLC: 0; LANA-H2A inh: 1.9; B2AR ag: -7; A1 inh: 1.5; T cruzi repl: 8; ALR H2O2 inh: -9

What do the screens show for `COC(=O)c1ccc(C(=O)OC)c(NC(=S)N2CCN(c3ccccn3)CC2)c1`?
Beta cell apopt: 0; rRNA inh HTS: -5; Calb FLC: inconclusive; LANA-H2A inh: 0.2; B2AR ag: 0; A1 inh: -0.4; T cruzi repl: -2; rRNA inh HTS OD600: -6; rRNA inh HTS RFP: 0.6

What do the screens show for `Cc1ccc(C(=O)ONc2ccc(N=O)cc2)cc1`?
Beta cell apopt: -15; Calb FLC: -10; LANA-H2A inh: 0.6; B2AR ag: 12; A1 inh: -1.4; T cruzi repl: -4; ALR H2O2 inh: 45

What do the screens show for `COc1ccc(O)c(/C=N/N=C/c2cccc([N+](=O)[O-])c2)c1`?
Beta cell apopt: 1; rRNA inh HTS: 3; Calb FLC: 6; LANA-H2A inh: 2.8; B2AR ag: 4; A1 inh: -0.7; T cruzi repl: -11; ALR H2O2 inh: -4; rRNA inh HTS OD600: 9; rRNA inh HTS RFP: -3.7

How did COCCCNc1nc2c(-c3cccc(C(F)(F)F)c3)nnn2c2ccccc12 do in these assays?
Beta cell apopt: -2; rRNA inh HTS: -1; Calb FLC: 9; LANA-H2A inh: -2.2; B2AR ag: -9; A1 inh: -0.8; T cruzi repl: -11; ALR H2O2 inh: -11; rRNA inh HTS OD600: 7; rRNA inh HTS RFP: 0.1

What do the screens show for `Cc1cc(C)c(C)c(OCCNCc2ccccc2)c1`?
Beta cell apopt: 1; rRNA inh HTS: -13; Calb FLC: -19; LANA-H2A inh: -0.2; B2AR ag: 9; A1 inh: 1.0; T cruzi repl: 24; ALR H2O2 inh: -2; rRNA inh HTS OD600: -16; rRNA inh HTS RFP: -3.7

What do the screens show for `COc1ccc(CNc2nc3ccccc3n2Cc2ccc(C)cc2)cc1OC`?
Beta cell apopt: 9; Calb FLC: 22; LANA-H2A inh: 0.4; B2AR ag: 4; A1 inh: 0.0; T cruzi repl: 5; ALR H2O2 inh: 2

Results for COc1ccc2[nH]cc(CCNC(=O)C3CCCO3)c2c1 (stereo unspecified) ?
Beta cell apopt: -1; rRNA inh HTS: 13; Calb FLC: -9; LANA-H2A inh: -6.4; B2AR ag: 21; A1 inh: 0.9; T cruzi repl: -16; ALR H2O2 inh: -13; rRNA inh HTS OD600: 7; rRNA inh HTS RFP: 8.5

What do the screens show for `CCOc1ccc(C2(C)CC(=O)N(C)C2=O)cc1` (stereo unspecified)?
rRNA inh HTS: 7; Calb FLC: 4; LANA-H2A inh: 1.8; B2AR ag: 6; A1 inh: -0.7; T cruzi repl: -17; ALR H2O2 inh: 3; rRNA inh HTS OD600: 0; rRNA inh HTS RFP: 0.6

What do the screens show for `O=C(NC(=S)Nc1ccc2[nH]c(=O)[nH]c2c1)c1ccccc1[N+](=O)[O-]`?
Beta cell apopt: -3; rRNA inh HTS: 9; Calb FLC: -2; LANA-H2A inh: 0.2; B2AR ag: -8; A1 inh: -1.0; T cruzi repl: -12; rRNA inh HTS OD600: 13; rRNA inh HTS RFP: 0.8

How did O=C(c1ccccc1)c1ccc(N2CCN(C(=O)c3cccc(F)c3F)CC2)c(F)c1 do in these assays?
Beta cell apopt: -3; Calb FLC: -1; LANA-H2A inh: -3.1; B2AR ag: -1; A1 inh: -0.7; T cruzi repl: 0; ALR H2O2 inh: -9

How did Cn1c2ccccc2c2ncn(Cc3ccco3)c(=O)c21 do in these assays?
Beta cell apopt: -12; Calb FLC: 0; LANA-H2A inh: 0.6; B2AR ag: 11; A1 inh: -0.2; T cruzi repl: -4; ALR H2O2 inh: 3

Results for COc1ccccc1N1CCN(C2CC(=O)N(c3cccc(Br)c3)C2=O)CC1 (stereo unspecified) ?
Beta cell apopt: 1; rRNA inh HTS: -11; Calb FLC: -3; LANA-H2A inh: -3.1; B2AR ag: 5; A1 inh: -0.7; T cruzi repl: -8; ALR H2O2 inh: 18; rRNA inh HTS OD600: -9; rRNA inh HTS RFP: 2.8

How did CC1COC2C(O1)N(S(C)(=O)=O)CCN2S(C)(=O)=O (stereo unspecified) do in these assays?
Beta cell apopt: -4; Calb FLC: -12; LANA-H2A inh: 4.8; B2AR ag: 2; A1 inh: inconclusive; ALR H2O2 inh: -6

How did CCN(Cc1nc2cc(Cl)ccc2c(=O)[nH]1)C(=O)c1nn(C)c(=O)c2ccccc12 do in these assays?
Beta cell apopt: 4; rRNA inh HTS: 12; LANA-H2A inh: 2.8; B2AR ag: 2; A1 inh: -0.3; ALR H2O2 inh: -2; rRNA inh HTS OD600: 10; rRNA inh HTS RFP: -0.4

How did COC(=O)c1ccc(Cn2cnc3c(cnn3-c3ccc(Cl)cc3)c2=O)o1 do in these assays?
Beta cell apopt: 0; rRNA inh HTS: 3; Calb FLC: 27; LANA-H2A inh: -1.1; B2AR ag: 11; A1 inh: 0.2; T cruzi repl: -14; ALR H2O2 inh: -1; rRNA inh HTS OD600: 14; rRNA inh HTS RFP: -0.9

Results for COc1ccccc1C(O)(C(=O)NN(C)c1ccccc1)c1ccccc1OC ?
Beta cell apopt: -5; Calb FLC: -5; LANA-H2A inh: -4.9; B2AR ag: -3; A1 inh: -0.3; T cruzi repl: -5; ALR H2O2 inh: 21

How did Oc1ccc(C[C@H]2CNCCN2CCc2cc(C(F)(F)F)cc(C(F)(F)F)c2)cc1 do in these assays?
Beta cell apopt: -19; rRNA inh HTS: -55; Calb FLC: -3; LANA-H2A inh: 2.0; B2AR ag: 28; A1 inh: -0.8; T cruzi repl: 7; ALR H2O2 inh: 0; rRNA inh HTS OD600: -77; rRNA inh HTS RFP: -27

How did COc1ccc(N2CC(C(=O)Nc3cc(C)on3)CC2=O)cc1 (stereo unspecified) do in these assays?
Beta cell apopt: 0; rRNA inh HTS: 15; Calb FLC: 8; LANA-H2A inh: 0.2; B2AR ag: -3; A1 inh: 1.0; T cruzi repl: -10; ALR H2O2 inh: -3; rRNA inh HTS OD600: 4; rRNA inh HTS RFP: 0.7

How did O=C(Nc1ccc(S(=O)(=O)NC2CCCCC2)cc1)c1ccc(Br)o1 do in these assays?
Beta cell apopt: 37; rRNA inh HTS: -4; Calb FLC: 3; LANA-H2A inh: -0.1; B2AR ag: -1; A1 inh: 0.2; T cruzi repl: 9; ALR H2O2 inh: 0; rRNA inh HTS OD600: 4; rRNA inh HTS RFP: 0.0

Results for O=C(C1CC1)N1CCc2cc(S(=O)(=O)NCCCN3CCCCC3)ccc21 ?
Beta cell apopt: 3; rRNA inh HTS: 6; Calb FLC: 25; LANA-H2A inh: -1.0; B2AR ag: -16; A1 inh: -2.6; T cruzi repl: -2; ALR H2O2 inh: 0; rRNA inh HTS OD600: 11; rRNA inh HTS RFP: -1.5

How did CN(C)C(=O)CSc1nnc2sc3ccccc3n12 do in these assays?
Beta cell apopt: -1; Calb FLC: -1; LANA-H2A inh: 1.9; B2AR ag: -4; A1 inh: -1.2; T cruzi repl: -6; ALR H2O2 inh: -14

Results for Cc1nn(-c2cc(N3CCOCC3)ccc2N)c(=O)c2ccccc12 ?
Beta cell apopt: -7; Calb FLC: 2; LANA-H2A inh: 0.6; B2AR ag: -2; A1 inh: -0.1; T cruzi repl: -11

What do the screens show for `Oc1ccc(/C=N/N2CCN(c3ccccn3)CC2)cc1`?
Beta cell apopt: 3; rRNA inh HTS: 5; Calb FLC: 5; LANA-H2A inh: -1.8; B2AR ag: 4; A1 inh: -3.6; T cruzi repl: 1; rRNA inh HTS OD600: 3; rRNA inh HTS RFP: -2.6

Results for C=CCn1c(SCC(=O)Nc2ccc(C(=O)OCC)cc2)nnc1-c1cccs1 ?
Beta cell apopt: 1; Calb FLC: 0; LANA-H2A inh: 0.5; B2AR ag: -7; A1 inh: -0.6; T cruzi repl: -2; ALR H2O2 inh: -4

How did CCS(=O)(=O)/N=C(\N)c1ccccc1 do in these assays?
rRNA inh HTS: 13; Calb FLC: -4; LANA-H2A inh: -1.1; B2AR ag: 4; A1 inh: 0.0; T cruzi repl: -7; ALR H2O2 inh: -11; rRNA inh HTS OD600: 7; rRNA inh HTS RFP: 2.8

Results for Cc1ccc(NC(=O)CN(C)C(=O)c2ccc(Cl)c([N+](=O)[O-])c2)cc1 ?
Beta cell apopt: -1; rRNA inh HTS: 10; Calb FLC: inconclusive; LANA-H2A inh: 3.0; B2AR ag: -1; A1 inh: -0.2; T cruzi repl: -16; ALR H2O2 inh: -4; rRNA inh HTS OD600: 3; rRNA inh HTS RFP: -0.1

Results for COc1ccc(S(=O)(=O)c2cnc3ccc(OC)cc3c2N2CCC3(CC2)OCCO3)cc1 ?
Beta cell apopt: -17; Calb FLC: 17; LANA-H2A inh: 3.6; B2AR ag: -12; A1 inh: -0.5; T cruzi repl: -4; ALR H2O2 inh: -1

What do the screens show for `Cc1ccccc1NC(=O)C(C)OC(=O)CNS(=O)(=O)c1ccc(C#N)cc1` (stereo unspecified)?
Beta cell apopt: -3; rRNA inh HTS: 4; Calb FLC: -11; LANA-H2A inh: 0.1; B2AR ag: 0; A1 inh: -0.7; T cruzi repl: 0; ALR H2O2 inh: 1; rRNA inh HTS OD600: 11; rRNA inh HTS RFP: -0.6

Results for CCN(CC)CC#CC(O)(c1ccccc1)c1ccccc1 ?
Beta cell apopt: -1; rRNA inh HTS: 23; Calb FLC: 6; LANA-H2A inh: 3.0; B2AR ag: -4; A1 inh: -0.7; T cruzi repl: -1; ALR H2O2 inh: 1; rRNA inh HTS OD600: 16; rRNA inh HTS RFP: 4.7

How did CCN1CCN(C(=O)CS(=O)(=O)Cc2nc(-c3cccc(OC)c3)oc2C)CC1 do in these assays?
Beta cell apopt: -9; rRNA inh HTS: 4; Calb FLC: -1; LANA-H2A inh: -6.3; B2AR ag: 0; A1 inh: 0.1; T cruzi repl: 0; ALR H2O2 inh: 99*; rRNA inh HTS OD600: 5; rRNA inh HTS RFP: 1.1
